MT1-MMP reporter – MT1-MMP gene expression reporter suppression – cell-based, luciferase reporter, luminescence (AID 618) | calls from a first round at 10 µM; hits with a dose series show EC50 in µM | 87,000 compounds, 0.62% hits | MT1-MMP promoter luciferase reporter cells, luminescence;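 active = over half of the reporter light lost at 10 µM or EC50 under 50 µM; inactive = the rest and hits that failed the dose series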;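 also: actives suppress MT1-MMP promoter-driven transcription so potencies describe inhibitors; HT1080 fibrosarcoma cells; overnight exposure; toxic or luciferase-blocking compounds were not removed from the actives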
Hsc70 ATP site – Hsc70 inhibitors, probe displacement, primary screen, biochemical, fluorescence polarization (AID 568) | Hsc70 fluorescence polarization, probe displacement; higher % means a stronger effect; strong numbers were not always called active | displacement, % at 20 µM; hits with a dose series show IC50 in µM | 83,000 tested, under 10 active;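 active = displacement above 50% without optical interference and an IC50 on retest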;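 also: ATPase domain with a fluorescein-tagged ATP probe; 0% = vehicle and 100% = excess ADP; read after one hour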
WNV NS2B-NS3 inh – inhibitors of West Nile virus NS2B-NS3 protease. 65,000 compounds, 0.18% hits. AID 577. WNV NS2B-NS3 protease, fluorogenic substrate Ex360/Em465; stronger effect = lower value. z-score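 (tested at a level between 10 and 100 µM)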;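 active = z-score at -3 or under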;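 also: score is relative to mean and spread of the compound wells of a plate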
Target sequence (P06935 1371-1501 limits assumed): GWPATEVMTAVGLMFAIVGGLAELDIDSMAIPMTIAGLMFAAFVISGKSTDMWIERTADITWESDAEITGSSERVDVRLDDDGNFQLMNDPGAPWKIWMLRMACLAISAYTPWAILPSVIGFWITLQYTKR
Target sequence (P06935 1502-1679 limits assumed): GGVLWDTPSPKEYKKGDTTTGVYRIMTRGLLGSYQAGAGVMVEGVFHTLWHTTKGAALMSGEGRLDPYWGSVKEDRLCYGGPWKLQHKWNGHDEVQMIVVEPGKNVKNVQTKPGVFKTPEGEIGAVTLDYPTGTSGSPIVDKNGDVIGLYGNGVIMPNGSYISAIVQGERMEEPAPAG
* marks the source's active call; other numbers are inactive results; i = inactive; / = not tested or not shown. Some of the compounds tested (hit frequency here may not be typical).

Below each compound – MT1-MMP reporter, Hsc70 ATP site, WNV NS2B-NS3 inh
CCOC(=O)CSc1nc(-c2ccccc2)nc2c1oc1ccccc12
→ i, 3.7%, /
CCCCn1c(N)c(N(CCOC)C(=O)CSc2nc3ccc(C)cc3[nH]2)c(=O)[nH]c1=O
→ i, 6.1%, 1.51
CC(CC(=O)O)CC1=NS(=O)(=O)c2ccccc2N1 (stereo not given)
→ i, -1.0%, 0.33
COc1ccc(C(=O)NCCc2nnc(SCC(=O)Nc3ccccc3)n2C)cc1
→ i, 0.9%, -0.44
CC1(C)CC(=O)c2sc(NC(=O)c3ccco3)nc2C1
→ i, -1.0%, -1.3
O=C(Nc1ccc2c(c1)C(=O)N(CC1CCCO1)C2=O)c1cccc(Br)c1 (stereo not given)
→ i, -2.1%, /
Cc1ccc(S(=O)(=O)N2CCCN(S(=O)(=O)c3ccc4c(c3)OCCO4)CC2)cc1
→ i, -2.6%, 0.49
COCCn1c(=S)[nH]c2cc(C(=O)N3CCN(c4ccccc4OC)CC3)ccc2c1=O
→ i, 3.3%, 1.66
O=C(CN1CCN(C(=O)c2ccco2)CC1)Nc1ccccc1-c1ccccc1
→ i, 3.4%, 1.12
O=C(Nc1cc(-c2nn(CC(=O)N3CCCCC3)c(=O)c3ccccc23)ccc1N1CCOCC1)c1ccc(Cl)cc1
→ i, 0.3%, /
COc1ccc(Nc2ncnc3c2cnn3Cc2ccccc2)cc1OC
→ i, 1.2%, -0.97
COC(=O)c1[nH]c2ccccc2c1NC(=O)CCN1CCSCC1
→ i, 0.5%, -0.49
COC(=O)COc1ccc(S(=O)(=O)Nc2ccc(C(N)=O)cc2)cc1Cl
→ i, 1.1%, -0.19
Cc1nnc(Nc2ccc(C(=O)N3CCOCC3)cc2)c2ccccc12
→ i, 1.8%, -0.67
CCOCc1nnc(NC(=O)c2cccs2)s1
→ i, -2.0%, 0.37
Cc1ccc2cc(COC(=O)c3ccco3)c(=O)[nH]c2c1
→ i, 0.6%, /
CCSc1nc2c(c(=O)[nH]c(=O)n2C)n1Cc1ccc(Cl)cc1
→ i, 0.1%, -0.09
Cc1cc2c(c(=O)n1CCN(C)C)C(c1ccccc1Br)C(C#N)=C(N)O2 (stereo not given)
→ i, -11.2%, -1.2
CCOC(=O)C1CCCN(C(=O)CNS(=O)(=O)c2ccc(Br)s2)C1 (stereo not given)
→ i, -5.6%, -0.67
Cn1c(N)c(C(=O)COC(=O)c2ccco2)c(=O)n(C)c1=O
→ i, -0.3%, -0.5
Cc1cc2nc(-c3ccco3)cc(C(F)(F)F)n2n1
→ i, 3.0%, -0.28
CCn1c2ccccc2c2cc(NC(=O)COC(=O)C3CCC(=O)N3)ccc21 (stereo not given)
→ i, -5.0%, 1.64
O=c1cc(N2CCN(c3cccc(Cl)c3)CC2)[nH]c(=O)n1C1CCCCC1
→ i, -3.8%, 0.91
COC(=O)c1ccc(-c2ccco2)n1Cc1cccc(C)c1
→ i, -4.0%, /
CNC(=O)COC(=O)c1[nH]c(C)c(C(C)=O)c1C
→ i, -4.7%, /
CCOc1ccc(C(=O)Nc2nnc(C)s2)cc1OCC
→ i, -5.6%, 0.22
Cc1ccc(S(=O)(=O)NCC(=O)N(CC(=O)NCC2CCCO2)C2CCCC2)cc1 (stereo not given)
→ i, -5.2%, 0.26
O=C(CN1C(=O)CCS(=O)(=O)c2ccccc21)NCc1ccccc1
→ i, -0.3%, -0.51
CNc1nc(SCc2ccccc2)nc(N2CCOCC2)n1
→ i, 3.7%, 1.25
CC1CCCC(n2c(=S)[nH]c3ccccc3c2=O)C1C (stereo not given)
→ i, -1.3%, /

Brought forward from above: 2 entries, followed by the next part.
Below each compound – MT1-MMP reporter, Hsc70 ATP site, WNV NS2B-NS3 inh
CNc1nc(SCc2ccccc2)nc(N2CCOCC2)n1
→ i, 3.7%, 1.25
CC1CCCC(n2c(=S)[nH]c3ccccc3c2=O)C1C (stereo not given)
→ i, -1.3%, /
COc1ccc(S(=O)(=O)C(C#N)c2nc3ccccc3nc2N2CCCCC2)cc1 (stereo not given)
→ i, 19.4%, -0.41
O=P(c1cccs1)(c1cccs1)c1cccs1
→ i, -3.2%, -1.47
C/C(Cl)=C/Cn1c(SC(C)C)nc2c1c(=O)[nH]c(=O)n2C
→ i, 0.2%, 0.34
COc1ccc(C2C(C(C)=O)=C(Nc3ccccc3)CC(C)(O)C2C(C)=O)cc1OC (stereo not given)
→ i, 6.9%, /
Cc1cc(C)c(C#N)c(SC2CCCCC2=O)n1 (stereo not given)
→ i, -8.4%, -0.88
COc1ccccc1Nc1nc2ccccc2[nH]1
→ i, -0.1%, 0.73
O=C(NC1CC1)C1CCCN1S(=O)(=O)c1ccc2ccccc2c1 (stereo not given)
→ i, -0.9%, -0.83
COc1ccc2c(c1)c(=O)oc1cc(OCC(=O)N3CCC(C)CC3)ccc12
→ i, 5.6%, 0.39
COCCn1c(SCC(=O)c2ccccc2)nc2c(c1=O)SC(C)C2 (stereo not given)
→ i, -3.7%, 0.25
CCOC(=O)CN1C(=O)C(O)(CC(=O)c2ccco2)c2ccccc21 (stereo not given)
→ i, -5.7%, 1.85
CC1(C)Cc2nc(N3CCOCC3)c(C#N)cc2CO1
→ i, -1.1%, 1.3
CCOC(=O)N1CCN(c2c(NCCc3ccc(OCC)c(OCC)c3)c(=O)c2=O)CC1
→ i, -5.9%, 1.47
O=S(=O)(CCc1nc2ccccc2s1)c1ccc2ccccc2c1
→ i, 2.2%, /
O=S(=O)(c1ccccc1)c1ccc(NCc2ccco2)cc1
→ i, -4.0%, -1.15
COc1ccc(N2CCN(/C(=N\S(=O)(=O)c3ccccc3)Nc3nc(C)cc(C)n3)CC2)cc1
→ i, -5.1%, 0.45
CC1(C)Cc2nc3nc(SCC(=O)NCCc4ccccc4)n(-c4ccccc4)c(=O)c3cc2CO1
→ i, -8.3%, /
COc1cccc2cc(C(=O)N3CCN(C/C=C/c4ccccc4)CC3)c(=O)oc12
→ i, 4.7%, 0.98
O=C1C2C3C=CC(C3)C2C(=O)N1CC1CCCO1 (stereo not given)
→ i, -3.7%, -0.6
Cn1cccc1C(=O)OCC(=O)Nc1ccc2c(c1)CCC2
→ i, -1.9%, 0.58
Cc1nnc(SCC(=O)Nc2ncc3c(n2)CC(C)(C)CC3=O)s1
→ i, -2.7%, /
O=C(NCCCN1CCOCC1)NC12CC3CC(CC(C3)C1)C2
→ i, 1.8%, -1.28
CCOc1ccc(NC(=O)c2oc3ccccc3c2NC(=O)C2CC2)cc1
→ i, -1.8%, 1.46
N#C/C=C1\n2c(nc3ccccc32)OC12CCCCC2
→ i, -11.9%, 1.78
Cc1ccc(C)c(OCC(O)CN2C(C)CCCC2C)c1 (stereo not given)
→ i, 0.9%, 0.48
CS(=O)(=O)N(CC(=O)NCc1ccco1)c1ccccc1Cl
→ i, 4.6%, /
CC1(C)CC(=O)C=C(N2CCN(C3=CC(=O)CC(C)(C)C3)CC2)C1
→ i, 1.3%, 1.82
CCOC(=O)c1c(C)[nH]c(C)c1C(=O)CN1C(=O)NC(CC(C)C)C1=O (stereo not given)
→ i, 0.9%, 0.98
COc1cccc(C2/C(=C(\O)c3ccc4c(c3)OCCO4)C(=O)C(=O)N2CCCN(C)C)c1OC (stereo not given)
→ i, 6.6%, 0.43
CCC(=O)N1CCc2cc(S(=O)(=O)CCC(=O)NCc3cccs3)ccc21
→ i, -4.7%, -0.37
CCOC(=O)N1CCN(C(=O)c2ccc3c(=O)n(Cc4ccc(Cl)cc4)c(=S)[nH]c3c2)CC1
→ i, 1.3%, -0.29
Oc1cccc(C=NCc2ccccc2)c1O
→ i, -11.4%, -0.81
COc1ccc(NC2=NCC(=O)N2c2ccccc2F)cc1
→ i, 2.7%, /
CCOC(=O)Cc1nnc(NC(=O)COc2ccc(C)cc2)s1
→ i, -13.1%, 0.55
Cc1ccccc1NC(=O)CCN1CCN(Cc2ccccc2)CC1
→ i, 0.9%, -0.12
Cc1oc2ccc(OCc3ccc(F)cc3)cc2c1C(=O)O
→ i, -2.4%, 1.88
CCC(=O)Nc1ccccc1Oc1ccccc1
→ i, -5.6%, -2.62
c1ccc2cc(OCc3nc4ccccc4[nH]3)ccc2c1
→ i, 4.5%, /
CCOC(=O)C1CCN(C(=O)c2ccc(Cl)c(S(=O)(=O)N3CCOCC3)c2)CC1
→ i, -2.9%, 0.48
CSc1ccccc1NC(=O)c1cccnc1
→ i, 5.0%, 0.21
O=C(NCC1CCCO1)c1ccc(S(=O)(=O)N2CCCCC2)cc1 (stereo not given)
→ i, 3.9%, -0.12
COc1ccc(-c2cc(C(F)(F)F)nc(SCC(=O)Nc3cc(C)on3)n2)cc1OC
→ i, -4.9%, -0.49
CCOC(=O)C1CCN(C(=O)CSc2cc(=O)n(CC)c3ccccc23)CC1
→ i, -0.7%, -0.44
CC1CCCC(NC(=O)C2CCN(S(=O)(=O)N3CCC4(CC3)OCCO4)CC2)C1C (stereo not given)
→ i, 2.1%, -0.54
COC(=O)c1ccc(Nc2cc(C)nc(-c3ccccc3O)n2)cc1
→ i, 7.6%, -0.43
CCc1sc(C(=O)NC)cc1Br
→ i, -3.8%, -0.78
OCc1ccccc1OCCOc1ccc(Cl)c2cccnc12
→ i, -1.1%, 0.85
CCCCC(=O)NNC(=S)NC(=O)CCC
→ i, 2.3%, /
CCOC(=O)c1ccc(NC(=O)NC(C)C2CCCO2)cc1 (stereo not given)
→ i, 3.3%, 0.42
COc1ccc(S(=O)(=O)N2CCCN(CC(=O)C(C)(C)C)CC2)cc1
→ i, -1.3%, 0.00788
O=S(=O)(c1ccccc1)N1CCN(S(=O)(=O)N2CCCCC2)CC1
→ i, -3.6%, /
COc1ccc(S(=O)(=O)N2CCN(C3CCN(Cc4ccccc4)CC3)CC2)cc1
→ i, 1.3%, -1.93
COc1ccc(S(=O)(=O)N2CCCCCC2)cc1C(=O)OCc1c(C)noc1C
→ i, 4.2%, -0.16
COC(=O)c1cc(NC(=O)CN(c2ccc3c(c2)OCO3)S(C)(=O)=O)ccc1Cl
→ i, 0.2%, -0.62
CC1CCN(C(=O)c2ccc(COc3ccccc3Cl)o2)CC1
→ i, 1.7%, 0.4
Cc1ccc(C)c(N2CCN(C(=O)C3CCCCN3S(=O)(=O)c3ccc(F)cc3)CC2)c1 (stereo not given)
→ i, 4.5%, /
O=C(CC1(O)C(=O)Nc2ccccc21)c1ccc(-n2cccc2)cc1 (stereo not given)
→ i, -8.2%, 0.3
C=CCn1c(N)c(C(=O)OCC(C)C)c2nc3ccccc3nc21
→ i, -0.2%, 0.57
Cn1cc(C(=O)NCCN2CCN(c3cccc(Cl)c3)CC2)c2c3ccccc3n(C)c2c1=O
→ i, -27.4%, -0.59
CC(C)c1ccc2c(c1)C1(NN=C(c3ccccc3)S1)C(=O)N2 (stereo not given)
→ i, -3.2%, /
COC(=O)c1ccc(NC(=O)CN2C(=O)CSC2=O)cc1
→ i, 6.9%, 0.52

An excerpt from above, showing only Hsc70 ATP site and MT1-MMP reporter:
SMILES,Hsc70 ATP site,MT1-MMP reporter
Cc1nnc(SCC(=O)Nc2ncc3c(n2)CC(C)(C)CC3=O)s1,-2.7%,i
COc1ccc(Nc2ncnc3c2cnn3Cc2ccccc2)cc1OC,1.2%,i

Continued.
SMILES | MT1-MMP reporter | Hsc70 ATP site | WNV NS2B-NS3 inh
Nc1ccc(CN2CCCCCC2)cc1 | i | -5.2% | /
C=CCSc1nc2c(c(=O)[nH]c(=O)n2C)n1Cc1ccc(C)cc1 | i | 4.1% | -0.02
Cc1cc(/C=C(\C#N)C(=O)OCC(=O)NC(=O)NC(C)(C)C)c(C)n1CCC(C)C | i | -0.2% | /
COC(=O)C1=C(N)N(c2ccc(F)cc2)C2=C(C(=O)CCC2)C1c1ccc2c(c1)OCO2 (stereo not given) | i | 0.9% | -0.65
Cc1cccc(Nc2nc(-c3ccccn3)cs2)n1 | i | 5.8% | -0.87
Cc1cccc(Oc2nc(-c3ccccc3)cc(C)c2S(C)(=O)=O)c1C | i | -1.3% | /
COc1cccc(NS(=O)(=O)c2ccc3c(c2)n(C)c(=O)c(=O)n3C)c1 | i | -2.6% | -1.58
CC(Oc1ccccc1)C(=O)NC1CC(C)(C)NC(C)(C)C1 (stereo not given) | i | 4.2% | 1.03
Cc1ccc(S(=O)(=O)N2C(=O)CCC2C(=O)Nn2cnnc2)cc1 (stereo not given) | i | -3.2% | /
O=c1oc(-c2cccs2)nc2sc3c(c12)CCC3 | i | -30.0% | -0.31
CCn1c(C(C#N)/C(=N\S(=O)(=O)c2cccs2)c2ccccc2)nc2ccccc21 (stereo not given) | i | -1.9% | -0.13
CN1CC=C2C(C#N)=C(N)C(C#N)(C#N)C(CCc3ccccc3)C2C1 (stereo not given) | i | 68.5% | -0.61
CC1(C)CC(=O)C=C(NCc2cccnc2)C1 | i | -7.2% | -0.68
O=C(O)c1ccc2c(c1)C(c1ccccc1)OC2=O (stereo not given) | i | -2.0% | 2.92

Complete entries, looked up by structure. Order of screens: MT1-MMP reporter | Hsc70 ATP site | WNV NS2B-NS3 inh
`O=c1oc(-c2cccs2)nc2sc3c(c12)CCC3` in the list: i | -30.0% | -0.31
`CC1(C)CC(=O)C=C(NCc2cccnc2)C1` in the list: i | -7.2% | -0.68
